# Assay outcomes as filed in PubChem BioAssay.
# HPGD block: qHTS Assay for Inhibitors of HPGD (15-Hydroxyprostaglandin Dehydrogenase); Potency, µM, for the others: at the highest dose activity change, negative = inhibition, actives largely listed as inhibitors; purified HPGD, NADH fluorescence kinetic, PGE2 substrate; 150,000 tested, 4.3% active; AID 894, 2007; 15-hydroxyprostaglandin dehydrogenase [NAD(+)] (Homo sapiens), P15428; active = well fitted inhibition curve with a large enough effect (not every such curve was filed as active); inconclusive = small, poorly fitted or top-dose-only effect, or another doubt; inactive = no such curve, though single readings can be large or run the other way;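 note: top concentration of the series not given in the record; plate controls included wells without enzyme; inactives centre near -10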
# Target sequence (P15428 whole entry, looked up): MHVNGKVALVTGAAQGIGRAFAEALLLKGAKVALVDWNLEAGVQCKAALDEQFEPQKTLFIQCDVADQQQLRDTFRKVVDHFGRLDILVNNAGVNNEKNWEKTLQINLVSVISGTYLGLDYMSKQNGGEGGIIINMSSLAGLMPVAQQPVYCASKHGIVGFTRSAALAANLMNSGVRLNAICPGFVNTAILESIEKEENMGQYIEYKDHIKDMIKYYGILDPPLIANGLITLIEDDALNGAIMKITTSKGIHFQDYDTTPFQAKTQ
#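 NADH formation kinetics: reaction with 30 uM PGE2 and 1 mM NAD+ (final), 20 nM enzyme, Tris-HCl pH 8 with Tween 20, after 15 min compound preincubation at room temperature. Fluorescence change, last versus first of five reads.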
# * hit, by the source's call; ? = inconclusive; & = joins results of further samples. % is set by controls: 0 for no effect and ±100 for the full control effect; potency is the fitted concentration of half-maximal effect. An excerpt (hit frequency here may not be typical).
SMILES,HPGD block
Cc1cccc(Nc2nc3c(s2)CCCC3)c1,-13.4%
COc1ccc(-c2cc(=O)oc3cc(OC(=O)C4CCCCC4)c(Cl)cc23)cc1,?
O=C(NCC1CC1)[C@@H]1C[C@H]1[C@@H](NP(=O)(c1ccccc1)c1ccccc1)c1ccccc1,-11.5%&-1.1%
Cc1cccc(C)c1NC(=O)C1(N(Cc2ccco2)C(=O)Cn2nnnc2N)CCCCC1,-4.8%
Cc1ccc(N/C=C(\C#N)c2ccc(OCCCF)cc2)cc1,?
CCOc1ccc(C(=O)Nc2nccs2)cc1[N+](=O)[O-],-16.3%
CCOc1ccccc1NC(=O)c1cccc(NC(=O)CC(c2ccccc2)c2ccccc2)c1,-36.8%
O=C(Oc1ccc2cc(Br)ccc2c1)c1cccnc1,0.1%
CCCC1=NN2C(=N)/C(=C\c3ccc(SCc4ccco4)o3)C(=O)N=C2S1,22.4µM*
CCS(=O)(=O)N1CCCC(C(=O)NCCCN(C)Cc2ccccc2)C1 (stereo unspecified),-5.0%
Cc1cccc(N2CCN(C(=O)c3ccc(NS(=O)(=O)c4c(C)noc4C)cc3)CC2)c1C,-21.2%
Cc1cccc(C)c1OCC(=O)N/N=C/c1cc2c(cc1[N+](=O)[O-])OCO2,-4.5%
O=C(Nc1nnc(SCc2ccc(Cl)cc2)s1)C1CC(=O)N(Cc2ccccc2)C1 (stereo unspecified),-3.2%
CCN(C#N)c1nc(N(C)C)nc(N(C)C)n1,-5.0%
CC(=O)NS(=O)(=O)c1ccc(NC(=O)COc2ccc(C(=O)c3ccccc3)cc2)cc1,25.1µM*
COC(=O)/C(=C1\OC(=O)C(c2ccccc2)C1=O)c1ccccc1 (stereo unspecified),-12.6%
Cc1nn(C)c(Oc2cccc(Cl)c2)c1C(=O)Nc1ccc(F)cc1,-11.2%
CCC(=O)c1cc(F)c(N2CCN(C(=O)Cc3ccccc3)CC2)cc1C,-24.3%
CC1=C(C(=O)N2CCN(c3cc(C)ccc3C)CC2)C2(CCC(C)CC2)OC1=O (stereo unspecified),-14.1%
CON1C(=O)C(=O)N(OC)C(C)(C)C1C (stereo unspecified),-7.2%

# Structural class, those above containing nitrogen in an aromatic ring (8)
SMILES,HPGD block
Cc1cccc(Nc2nc3c(s2)CCCC3)c1,-13.4%
Cc1cccc(C)c1NC(=O)C1(N(Cc2ccco2)C(=O)Cn2nnnc2N)CCCCC1,-4.8%
CCOc1ccc(C(=O)Nc2nccs2)cc1[N+](=O)[O-],-16.3%
O=C(Oc1ccc2cc(Br)ccc2c1)c1cccnc1,0.1%
Cc1cccc(N2CCN(C(=O)c3ccc(NS(=O)(=O)c4c(C)noc4C)cc3)CC2)c1C,-21.2%
O=C(Nc1nnc(SCc2ccc(Cl)cc2)s1)C1CC(=O)N(Cc2ccccc2)C1 (stereo unspecified),-3.2%
CCN(C#N)c1nc(N(C)C)nc(N(C)C)n1,-5.0%
Cc1nn(C)c(Oc2cccc(Cl)c2)c1C(=O)Nc1ccc(F)cc1,-11.2%

# Remaining list, next part
SMILES,HPGD block
CC(C)n1nnnc1SCC(=O)c1ccc2c(c1)OCCO2,-14.9%
CCn1c(=O)c(=O)[nH]c2cc(C(=O)NC3CCCc4ccccc43)ccc21 (stereo unspecified),?
O=C(NCc1ccco1)/C(=C\c1cccnc1)NC(=O)c1ccccc1F,-11.1%
C=C[C@]1(C)C[C@H]1[C@H](NP(=O)(c1ccccc1)c1ccccc1)c1ccccc1,-9.9%
Cc1ccc(-c2cc(C(F)F)n3ncc(C(=O)N4CCCc5ccccc54)c3n2)cc1,-15.1%
CC(O)CNC(=O)C1CCN(Cc2ccc(OCc3ccccc3)cc2)CC1 (stereo unspecified),-3.8%
COCOc1ccccc1C(=O)/C=C/c1ccccc1,-18.9%
CCOC(=O)N1CCN(C(=O)c2ccc3c(c2)N(Cc2ccc(C)cc2)CCS3)CC1,?
COc1ccc(-c2cnc(N)nc2-c2ccc(OC)cc2O)cc1,-8.6%
CCCCCCn1c(CN2CCC(C)CC2)nc2c1c(=O)n(C)c(=O)n2C,-7.3%
Cc1ccc2cc(CN(CCCN3CCOCC3)C(=O)NC3CCCCC3)c(=O)[nH]c2c1C,-22.3%
COc1ccc(NC(=O)CSc2nc3sc(C)c(C)c3c(=O)n2Cc2ccco2)cc1,-4.8%
COc1ccc(CCC(=O)Nc2ccc(N3CCOCC3)cc2)cc1,-9.2%
COc1cc(/C=N/N2C(=O)CSC2=S)ccc1O,-17.5%
CCC(C)NC(=O)C1CCN(S(=O)(=O)c2cccs2)CC1 (stereo unspecified),0.5%
Cc1ccc2c(c1)CCCN2C(=O)c1cccs1,-10.8%
COc1cc(OC)c(OC)cc1CNCCNC(=O)c1nonc1N,-3.4%
CCOC(=O)c1c(C)[nH]c(C(=O)Nc2ccc(C)c(Cl)c2)c1C,0.1%
Cc1nc2ccccn2c1-c1csc(NCc2ccco2)n1,?
CC(=O)C1=C(NC(=O)c2ccc(F)cc2)CC2C1C2(C)C (stereo unspecified),?

# Of the compounds above, these contain a nitro group on carbon:
SMILES,HPGD block
CCOc1ccc(C(=O)Nc2nccs2)cc1[N+](=O)[O-],-16.3%
Cc1cccc(C)c1OCC(=O)N/N=C/c1cc2c(cc1[N+](=O)[O-])OCO2,-4.5%

# Additional results follow.
SMILES,HPGD block
O=C(C1CC1)N1CCc2cc(Br)cc(S(=O)(=O)N3CCN(c4ccccn4)CC3)c21,-14.2%
COC(=O)N/N=C/c1cc(OC)c(O)c([N+](=O)[O-])c1,-4.4%
CC1CN(C(=O)COC(=O)c2cccs2)CC(C)O1 (stereo unspecified),-2.6%
CN1CCCCCC1=NC1=C(C#N)CCCC1,-6.2%
CC(C)C(=O)NC(NC(=S)NC1CCS(=O)(=O)C1)C(Cl)(Cl)Cl (stereo unspecified),-10.7%
Cn1c(Br)nc2c1c(=O)n(CC(O)COc1ccccc1)c(=O)n2C (stereo unspecified),-9.4%
COC(=O)c1ccc(NC(=O)CSc2nnc(Cc3cccn3C)n2-c2ccc(F)cc2)cc1,-7.6%
O=C(c1nnc(Cc2ccc(Cl)cc2)o1)N1CCOCC1,-5.1%
C/C(=N\NC(=O)c1ccc(Cn2cc(Br)cn2)o1)c1cccc(NC(=O)C(C)(C)C)c1,-3.5%
Nc1nc2c(ncn2COC(CO)CO)c(=O)[nH]1,-13.2%&1.8%&-2.2%
CC(=O)NS(=O)(=O)c1ccc(N)cc1,-15.4%&1.4%&-9.6%&-1.7%
CCCNC(=O)COC(=O)CCC(=O)c1ccc(F)cc1,-8.1%
O=C(C(c1ccccc1)c1ccccc1)N1CCN(CCN2C(=O)c3cccc4cccc(c34)C2=O)CC1,-7.1%
CSCC[C@H](NC(=O)c1nn(C)c(=O)c2ccccc12)c1nc2ccccc2[nH]1,-3.7%
COC(=O)c1sccc1-c1ccc(/C=N/OCc2c(Cl)cccc2Cl)o1,-27.5%
Cc1ccc(/C=N/Nc2cccc(C(=O)O)c2)s1,-13.7%
c1csc(CCNc2ncnc3sc4c(c23)CCC4)c1,?
O=C(c1cc(Cl)c(=O)n(Cc2ccccc2)c1)N1CCOCC1,-10.2%
C[N+]1(C)CCc2cc(O)c(O)cc2[C@H]1Cc1ccc(O)c(O)c1,-2.6%
C=CCOc1ccc(C2/C(=C(\O)c3c(C)[nH]c(C(=O)OC)c3C)C(=O)C(=O)N2CCN(C)C)cc1 (stereo unspecified),-5.0%
O=C(O)C1CSC(c2coc3ccccc3c2=O)N1 (stereo unspecified),-19.1%
CN1C(=O)c2ccc(N(C)C)cc2C1=O,-23.2%
CCN(CC)C(=O)CN1CCC(n2c(C)nc3cc(C(F)(F)F)ccc32)CC1,0.3%
C=CCn1c(SCc2csc(C)n2)nc2scc(-c3ccc(C)o3)c2c1=O,?
COC(=O)c1cc(OC)c(OC)cc1NC(=O)CCc1ccc(C)o1,-9.4%
Cc1cccc(-n2c(SCCC(=O)O)nnc2-c2cccs2)c1C,-24.5%
CCCc1nnc(SCC(=O)N2CCCC(C)C2)n1CC1CCCO1 (stereo unspecified),2.8%
Cc1cccc(OCCC(=O)Nc2ccc(F)c(Cl)c2)c1,-15.8%
Cc1ccccc1OCC(=O)N1N=C(c2cccnc2)CC1(O)C(F)(F)F (stereo unspecified),-5.3%
CN(C)CCOC(C1CCCCC1)C1CCCCC1,1.2%
C[C@H]1Cc2c(-c3ccccc3)nc3c(c2CO1)CN(C(=O)C1CCCCC1)CC3,-3.7%
Cc1ccc(S(=O)(=O)CCc2nc3ccccc3s2)cc1C,-8.1%
CCOC(=O)Cc1csc(NC(=O)CSc2nnnn2-c2ccc(F)cc2)n1,-13.6%
Cc1c(C)n(C)c2ccc([N+](=O)[O-])cc12,0.1%
Cc1ccccc1OCC(=O)Nc1cccc(N(C)S(C)(=O)=O)c1,-11.0%
CC(C)CC(=O)Nc1ccc(-c2nc3ccccc3c(=O)o2)cc1,?
COc1cccc(C(Nc2ccccn2)c2c(NC(=O)c3ccco3)sc(C)c2C)c1 (stereo unspecified),-14.4%
CCOC(=O)c1ccccc1NC(=O)CSc1nnnn1C,-8.8%
CCc1cc[n+](/C(C(=S)Nc2cccc(C)c2)=C(/[O-])c2ccc(C)c([N+](=O)[O-])c2)cc1,-20.1%
CC(=O)c1n[nH]nc1Nc1nc(C)cc(C)n1,-11.3%
Cc1cc(NS(=O)(=O)c2ccc(N3C(=O)C4C5C=CC(C5)C4C3=O)cc2)nc(C)n1 (stereo unspecified),-5.4%
COc1ccc(OCCSc2ncccn2)cc1,-7.9%
COc1cccc(-c2cc(C(=O)NCCCn3ccnc3)c3ccccc3n2)c1,-9.9%
Cc1ccc(S(=O)(=O)NCC(=O)OCc2nnc(-c3ccccc3)o2)cc1C,-8.1%
Nc1nc(-c2ccc3ccccc3c2)c(C2(O)C(=O)Nc3c(Br)cc(F)cc32)s1 (stereo unspecified),-4.4%
O=C(CSc1nnnn1Cc1ccccc1)NCCc1ccccc1,-4.6%
COc1ccc([N+](=O)[O-])cc1NC(=O)/C=C/C(=O)O,-7.0%
O=C(c1cnccn1)N1CCC2(CCCN(c3ccccc3)C2)CC1,-9.5%
CC/C(CC(C)(C)c1ccccc1)=N\O,-5.9%
CCn1cc(C(=O)N2CCN(c3ccccn3)CC2)c2cc(OC)c(OC)cc2c1=O,-5.7%
O=C(O)CS(=O)(=O)CC(=O)O,-4.0%
Cc1ccc(/C=N/NC(=O)Cn2cnc3ccccc32)o1,2.1%
CCc1ccc(OCC(=O)NC(NC(=S)Nc2ccc(Cl)cc2)C(Cl)(Cl)Cl)cc1 (stereo unspecified),-6.5%
CCC(C)Sc1nnc(Cc2cc(=O)[nH]c(=O)[nH]2)n1-c1ccc(OC)cc1 (stereo unspecified),-2.7%
COc1cccc(NC(=O)CN(C)C(=O)c2ccc3ccccc3c2)c1,-12.8%
O=C(Oc1cncc(Cl)c1)c1ccco1,-2.5%
Cc1ccccc1Cn1ccc(NC(=O)c2onc(C)c2Cl)n1,-15.1%
CS(=O)(=O)N(CC(=O)N1CCC(C(N)=O)CC1)C1CCCCC1,-10.1%
CS(=O)(=O)N1CCN(c2nc(-c3ccccc3)cs2)CC1,-1.8%
Cc1occc1C(=O)Nc1cccc2ccccc12,-27.9%
# Next part.
SMILES,HPGD block
Cc1cc2ncn(N)c2cc1C,-4.8%
COc1ccc(C(=O)OCC2CC(c3ccccc3)N(C)O2)cc1 (stereo unspecified),-11.5%
COc1cccc(C2=CC(c3ccc(N(C)C)cc3)n3nnnc3N2)c1 (stereo unspecified),-7.3%
Cn1c(=O)c2ncn(CC(=O)Nc3cc(C(F)(F)F)ccc3N3CCOCC3)c2n(C)c1=O,1.1%
CCOC(=O)CN1C(=O)C(C)(C)Oc2ccc(C(=O)Nc3ccccc3OC)cc21,-14.4%
CCC(=O)N1CCN(C(=O)c2ccccc2)CC1,-15.9%
CCCc1[nH][nH]c(=O)c1C(c1ccc(Br)cc1)C(C#N)C#N (stereo unspecified),20µM*
Cc1cccc(CC(Cc2nc3ccccc3[nH]2)c2nc3ccccc3[nH]2)c1 (stereo unspecified),-15.3%
O=C(CCC(=O)Nc1ccccc1)NNC(=O)COc1ccccc1,-5.0%
CCOC(=O)CC(NC(=O)c1cc2cc(Cl)cc(Cl)c2oc1=O)c1cccc([N+](=O)[O-])c1 (stereo unspecified),-12.8%
C=CCN=C1NN=C(c2cc(C)n(CC=C)c2C)CS1,-25.6%
CN(C)C(=O)COc1ccc2ccc(=O)oc2c1,?
CCC(=O)Nc1ccc(C(=O)N/N=C/c2ccc([N+](=O)[O-])cc2)cc1,-1.3%
O=S(=O)(N1CCOCC1)n1cnc2ccccc21,-10.9%
O=C(NCCN1C(=O)S/C(=C\c2ccc(F)cc2)C1=O)C1CCN(S(=O)(=O)c2cccs2)CC1,?
Cn1c(C(=O)Nc2ccc3c(c2)OCO3)cc2sccc21,-17.3%
O=C(CN1C(=O)CCC1=O)NCC12CC3CC(CC(C3)C1)C2,-5.2%
Fc1ccc2c(c1)C(c1ccncc1)=NNC(c1ccccc1)=N2,-17.4%
COC(=O)[C@@]1(Cc2ccc(OC)cc2)[C@H]2c3cc(C(=O)N(C)C)n(Cc4ccccc4)c3C[C@H]2CN1C(=O)c1ccccc1,-2.8%
CCCSc1ccc(-c2nn(-c3ccccc3)cc2/C=C(/C#N)C(=O)N2CCOCC2)cc1,?
CC(=O)Nc1ncc2c(n1)CC(c1ccco1)CC2=O (stereo unspecified),-7.4%
NC(=O)C1CCN(c2nc(C3CC3)nc3c2nnn3Cc2ccccc2)CC1,-9.9%
CCn1cnc2cc(NCc3ccncc3)ccc21,-15.5%
NC(=O)CCn1c(=O)oc2ccccc21,-7.0%
NC(=O)CSc1nnc(Cn2c(=O)sc3ccccc32)n1CCc1ccccc1,-12.2%
Cc1nc2sc(C(c3ccccc3)N3CCC(O)CC3)c(O)n2n1 (stereo unspecified),-2.8%
O=C(CC1N=C2c3ccccc3N=C(SCc3ccccc3Cl)N2C1=O)NCc1ccco1 (stereo unspecified),?
